Epigenetic derep: Quantitative High-Throughput Screen for Regulators of Epigenetic Control; murine LDR cells, GFP reporter derepression, 30 h; 0.2% of 280,000 active; Potency, µM (highest dose often 53.9 µM), for the others: at the top dose GFP activation, most hits filed as activators; also: potency is read from the fitted curve at half-maximal effect; % of control where 0% means no effect; nearly all actives have a fitted effect of over 60% in size
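Readout is the number of GFP-expressing murine LDR cells, counted by cytometry following washing. Cells were treated with compound for 30 h at 37 C; the stably integrated CMV-GFP locus is normally silent.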
CBFb-RUNX1 inh: qHTS Assay for Compounds Blocking the Interaction Between CBF-beta and RUNX1 for the Treatment of Acute Myeloid Leukemia. Runt-related transcription factor 1 (Homo sapiens) + Core-binding factor subunit beta …. AlphaScreen CBFb-His/RUNX1-biotin binding, biochemical. Potency, µM (doses to about 59.8 µM), for the others: at the top dose activity, negative = inhibition, actives largely listed as inhibitors. 230,000 tested, under 10 active; also: % of control where 0% means no effect
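Compounds were screened at multiple concentrations against a preformed CBF-beta(His)/RUNX1(biotin) complex (30 nM of each) for 15 min at room temperature, followed by 90 min with nickel and streptavidin beads and AlphaScreen reading.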
GLA spleen mod: qHTS Assay for Inhibitors and Activators of Human alpha-Galactosidase From Spleen Homogenate; Alpha-galactosidase A (Homo sapiens), P06280; AID 2107, 2009; Potency, µM (top dose mostly 80 µM), for the others: at the highest dose activity change, negative = inhibition, most hits filed as inhibitors; human spleen homogenate, 4MU-alpha-Gal fluorescence, 40 min; 0.008% of 240,000 active;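 also: potency is read from the fitted curve at half-maximal effect; 0% = enzyme with vehicle and -100% = no enzyme basal signal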
Target sequence (P06280 32-429 limits assumed): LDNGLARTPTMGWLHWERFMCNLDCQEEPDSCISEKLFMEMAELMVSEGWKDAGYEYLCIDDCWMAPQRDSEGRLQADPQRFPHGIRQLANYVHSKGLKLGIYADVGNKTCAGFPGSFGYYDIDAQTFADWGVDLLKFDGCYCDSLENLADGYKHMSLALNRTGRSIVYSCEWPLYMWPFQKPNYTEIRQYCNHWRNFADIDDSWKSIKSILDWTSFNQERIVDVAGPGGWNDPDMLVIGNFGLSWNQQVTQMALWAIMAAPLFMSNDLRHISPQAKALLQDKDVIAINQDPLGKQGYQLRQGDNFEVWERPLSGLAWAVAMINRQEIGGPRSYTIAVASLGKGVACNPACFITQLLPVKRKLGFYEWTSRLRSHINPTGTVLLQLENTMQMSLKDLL
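Human spleen homogenate (1 ug) was the enzyme source, with 4-methylumbelliferyl-alpha-D-galactopyranoside (1 mM final) in pH 5.0 citrate buffer with 0.01% Tween-20. Compounds were titrated; after 40 min at 37C, NaOH/glycine stop, 4-MU fluorescence read; AC50 from Hill fits.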
Tau FP inhib: qHTS for Inhibitors of Tau Fibril Formation, Fluorescence Polarization. Potency, µM (top dose mostly 57.7 µM), inactives show top-dose activity, negative = inhibition, hits mostly inhibitors. Microtubule-associated protein tau (Homo sapiens), P10636. 0.39% of 280,000 active. K18 P301L tau heparin fibrillization, Alexa594 FP, 6 h. AID 1468, 2008; also: potency is read from the fitted curve at half-maximal effect; % is scaled to controls: 0 for no effect and ±100 for the full control effect; nearly all actives have a fitted effect of over 55% in size
Target sequence (P10636 561-689 P618L limits assumed): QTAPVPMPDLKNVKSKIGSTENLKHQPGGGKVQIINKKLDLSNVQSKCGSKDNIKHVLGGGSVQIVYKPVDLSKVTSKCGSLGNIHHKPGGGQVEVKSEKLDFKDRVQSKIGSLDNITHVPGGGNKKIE
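Human tau K18 […] P301L fragment, 15 uM unlabeled plus 0.24 uM Alexa 594-labeled tau (final), with compound and 20 uM heparin in 100 mM sodium acetate pH 7; 6 hr at 37 C, then Alexa 594 FP read.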
Tau fluor cs: Counterscreen qHTS for Inhibitors of Tau Fibril Formation, Fluorescence Polarization | Potency, µM (doses to about 57.7 µM), for inactives: top-dose activity change, negative = decrease | AID 1463, 2008 | 0.93% of 280,000 active | tau K18 P301L (four-repeat tau fragment) Alexa594 fluorescence, heparin fibrillization; also: potency is read from the fitted curve at half-maximal effect; % is scaled to controls: 0 for no effect and ±100 for the full control effect; nearly all actives have a fitted effect of over 55% in size
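Human K18 P301L tau (15 uM unlabeled plus 0.24 uM Alexa 594-labeled, final) in 100 mM sodium acetate pH 7 was mixed with compound and 20 uM heparin and incubated 6 hr at 37 C.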
NPSR antag: qHTS Assay for Antagonists of the Neuropeptide S Receptor: cAMP Signal Transduction. AID 1461, 2008. Q6W5P4. CHO-NPSR cells, cAMP TR-FRET, antagonist mode. Potency, µM (titrated, usually from 38.3 µM), for the others: at the top dose activity change, negative = inhibition, hits mostly inhibitors. 1% of 220,000 active; also: potency is read from the fitted curve at half-maximal effect; % is scaled to controls: 0 for no effect and ±100 for the full control effect; nearly all actives have a fitted effect of over 50% in size; many of its hits are not listed in these tables
Target sequence (Q6W5P4 whole entry, looked up): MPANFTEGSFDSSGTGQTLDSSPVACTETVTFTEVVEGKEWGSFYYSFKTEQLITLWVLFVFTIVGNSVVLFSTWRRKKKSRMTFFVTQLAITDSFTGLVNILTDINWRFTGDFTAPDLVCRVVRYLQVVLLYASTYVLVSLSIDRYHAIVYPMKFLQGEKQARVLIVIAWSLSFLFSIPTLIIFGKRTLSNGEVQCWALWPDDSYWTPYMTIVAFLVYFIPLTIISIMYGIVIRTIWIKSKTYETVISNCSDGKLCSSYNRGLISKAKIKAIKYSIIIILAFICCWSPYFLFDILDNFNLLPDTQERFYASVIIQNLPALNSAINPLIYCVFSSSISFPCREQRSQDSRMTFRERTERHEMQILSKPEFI
Numbers without * were called inactive; ? = inconclusive; / = no result given; & = joins results of further samples; [ ] = dose if it differs, or a comment. Calls follow the shape of the dose curve; as a rule, active = well fitted curve in the direction sought with a large enough effect; inconclusive = small, poorly fitted or top-dose-only effect, or another doubt; inactive = no such curve, though single readings can be large; an effect the other way counts as inactive or inconclusive. A portion of the library; the hit share may differ from the screen's.

#1 C[C@H](N)[C@H](O)c1cccc(O)c1
#2 S=C1NC=NC2N=CNC12 (stereo not drawn)
#3 COc1cc(C)c(/C=C/C(C)=C/C=C/C(C)=C/C(=O)O)c(C)c1C
#4 O=[N+]([O-])c1cccc(Cl)c1Cl
#5 CC(C)C[C@@H](N)C(=O)O
#6 CN(C)CCCN1c2ccccc2CCc2ccc(Cl)cc21
#7 Nc1ccc(C(=O)O)c(O)c1 (tested in a mixture with another compound)
#8 Nc1ccc(S(=O)(=O)Nc2nccs2)cc1

| Screen / compound no. | 1 | 2 | 3 | 4 | 5 | 6 | 7 | 8 |
| --- | --- | --- | --- | --- | --- | --- | --- | --- |
| Epigenetic derep | 1.1%[16.9 µM] | / | 3.2% | / | 0.0% | -1.6% | 0.0% | 1.1% |
| CBFb-RUNX1 inh | 21%[21.7 µM] | 5%[21.7 µM] | -19% | 21%[21.7 µM] | 3% | 10% | 4% | 2% |
| GLA spleen mod | -2%[29.1 µM] | 2% | -18% | 6% | 0% | 2% | 15% | -2% |
| Tau FP inhib | / | / | -11% | / | 2% | 4%&-7%&0%&-9%&-1% | -3% | -2% |
| Tau fluor cs | / | / | ? | / | 8% | -15%&-14%&-10%&-13%&-5% | -15% | -14% |
| NPSR antag | / | / | / | / | / | ? | / | / |

#9 CCOC(=O)c1ccc(N2C(=O)c3[nH]nc(-c4ccc(OC)cc4)c3C2c2ccc(C)cc2)cc1 (stereo not drawn)
#10 CC[N+](CC)(CC(=O)Nc1c(C)cccc1C)Cc1ccccc1
#11 CCCCC[C@H](O)/C=C/[C@H]1[C@H](O)CC(=O)[C@@H]1CCCCCCC(=O)O
#12 OC(CNCC1CCCO1)Cn1c2ccccc2c2ccccc21 (stereo not drawn)
#13 C/C=C1/C(=O)C[C@@H]2[C@H]3CCC4=CC(=O)CC[C@]4(C)[C@@H]3CC[C@]12C
#14 CC(=O)Nc1c(I)c(C(=O)N[C@H]2[C@@H](O)[C@H](O)[C@H](CO)O[C@@H]2O)c(I)c(N(C)C(C)=O)c1I
#15 CCN(CC)CCOC(=O)C(c1ccccc1)C1CCCCC1 (stereo not drawn)
#16 CC(C)OC(=O)C(C)(C)Oc1ccc(C(=O)c2ccc(Cl)cc2)cc1

| Screen / compound no. | 9 | 10 | 11 | 12 | 13 | 14 | 15 | 16 |
| --- | --- | --- | --- | --- | --- | --- | --- | --- |
| Epigenetic derep | -1.3% | 4.4%[16.9 µM] | 0.0%&-0.1% | -4.8% | 0.0% | 1.4%[16.9 µM] | 3.7% | 2.9% |
| CBFb-RUNX1 inh | / | 27%[21.7 µM] | 9%&-1% | 2% | -3% | -14%[21.7 µM] | 10% | ? |
| GLA spleen mod | / | 3%[29.1 µM] | -5%&6% | 6% | -14% | 6%[29.1 µM] | 6% | 4% |
| Tau FP inhib | ? | / | -6%&2% | -5% | -9% | / | 7% | ? |
| Tau fluor cs | ? | / | -4%&-5% | -4% | -6% | / | -8% | -10%&-8%&-18% |
| NPSR antag | / | / | / | -2%[46.1 µM] | / | / | / | ? |

#17 CN=C(N)NCCC[C@H](N)C(=O)O
#18 CC(C)c1nc(N(C)S(C)(=O)=O)nc(-c2ccc(F)cc2)c1/C=C/C(O)CC(O)CC(=O)O (stereo not drawn)
#19 Cc1ccc(Cl)cc1
#20 O=C1Cc2cc(CCN3CCN(c4nsc5ccccc45)CC3)c(Cl)cc2N1
#21 O=C(O)CCCCC(=O)O
#22 c1ccc2c(c1)ccc1ncccc12
#23 CC(=O)Nc1ccc(OC[C@@H](O)CNC(C)C)cc1
#24 Nc1nc2c(c(=O)[nH]1)N(C=O)[C@H](CNc1ccc(C(=O)N[C@@H](CCC(=O)O)C(=O)O)cc1)CN2

| Screen / compound no. | 17 | 18 | 19 | 20 | 21 | 22 | 23 | 24 |
| --- | --- | --- | --- | --- | --- | --- | --- | --- |
| Epigenetic derep | 4.5% | -0.3% | / | 1.1% | / | -0.2% | 7.0% | 1.1%[16.9 µM] |
| CBFb-RUNX1 inh | 8%[21.7 µM] | -10% | 23%[21.7 µM] | -8% | 5%[21.7 µM] | -4% | -1%&1%[21.7 µM] | -6%[21.7 µM] |
| GLA spleen mod | -9% | -2% | 6% | 1% | -2% | 4%&2% | 10% | -4%[29.1 µM] |
| Tau FP inhib | -1% | 5% | / | ? | / | 1% | -6% | / |
| Tau fluor cs | -3% | -4% | / | -28% | / | -10% | -9% | / |
| NPSR antag | / | / | / | -11% | / | 4% | / | / |

Laid out differently: entries from further up.
| # | canonical_smiles | Epigenetic derep | CBFb-RUNX1 inh | GLA spleen mod | Tau FP inhib | Tau fluor cs | NPSR antag |
| --- | --- | --- | --- | --- | --- | --- | --- |
| 7 | Nc1ccc(C(=O)O)c(O)c1 (tested in a mixture with another compound) | 0.0% | 4% | 15% | -3% | -15% | / |
| 8 | Nc1ccc(S(=O)(=O)Nc2nccs2)cc1 | 1.1% | 2% | -2% | -2% | -14% | / |
| 9 | CCOC(=O)c1ccc(N2C(=O)c3[nH]nc(-c4ccc(OC)cc4)c3C2c2ccc(C)cc2)cc1 (stereo not drawn) | -1.3% | / | / | ? | ? | / |
| 10 | CC[N+](CC)(CC(=O)Nc1c(C)cccc1C)Cc1ccccc1 | 4.4%[16.9 µM] | 27%[21.7 µM] | 3%[29.1 µM] | / | / | / |
| 11 | CCCCC[C@H](O)/C=C/[C@H]1[C@H](O)CC(=O)[C@@H]1CCCCCCC(=O)O | 0.0%&-0.1% | 9%&-1% | -5%&6% | -6%&2% | -4%&-5% | / |
| 12 | OC(CNCC1CCCO1)Cn1c2ccccc2c2ccccc21 (stereo not drawn) | -4.8% | 2% | 6% | -5% | -4% | -2%[46.1 µM] |
| 13 | C/C=C1/C(=O)C[C@@H]2[C@H]3CCC4=CC(=O)CC[C@]4(C)[C@@H]3CC[C@]12C | 0.0% | -3% | -14% | -9% | -6% | / |
| 14 | CC(=O)Nc1c(I)c(C(=O)N[C@H]2[C@@H](O)[C@H](O)[C@H](CO)O[C@@H]2O)c(I)c(N(C)C(C)=O)c1I | 1.4%[16.9 µM] | -14%[21.7 µM] | 6%[29.1 µM] | / | / | / |
| 15 | CCN(CC)CCOC(=O)C(c1ccccc1)C1CCCCC1 (stereo not drawn) | 3.7% | 10% | 6% | 7% | -8% | / |
| 16 | CC(C)OC(=O)C(C)(C)Oc1ccc(C(=O)c2ccc(Cl)cc2)cc1 | 2.9% | ? | 4% | ? | -10%&-8%&-18% | ? |
| 17 | CN=C(N)NCCC[C@H](N)C(=O)O | 4.5% | 8%[21.7 µM] | -9% | -1% | -3% | / |
| 18 | CC(C)c1nc(N(C)S(C)(=O)=O)nc(-c2ccc(F)cc2)c1/C=C/C(O)CC(O)CC(=O)O (stereo not drawn) | -0.3% | -10% | -2% | 5% | -4% | / |
| 19 | Cc1ccc(Cl)cc1 | / | 23%[21.7 µM] | 6% | / | / | / |
| 20 | O=C1Cc2cc(CCN3CCN(c4nsc5ccccc45)CC3)c(Cl)cc2N1 | 1.1% | -8% | 1% | ? | -28% | -11% |
| 21 | O=C(O)CCCCC(=O)O | / | 5%[21.7 µM] | -2% | / | / | / |

Carrying on:
#25 CS(=O)(=O)OCCCCOS(C)(=O)=O
#26 O=C(c1ccccc1)c1ccccc1
#27 Nc1ccc(N2CCN(CCCCN3C(=O)C4CCCN4C3=O)CC2)cc1 (stereo not drawn)
#28 Nc1nc(-c2ccccc2)cs1
#29 CN(C)c1nc(N(C)C)nc(N(C)C)n1
#30 C[C@H](NCCC(c1ccccc1)c1ccccc1)c1ccccc1
#31 C/C=C1/C(=O)C[C@H]2[C@@H]3CCC4=CC(=O)CC[C@]4(C)[C@H]3CC[C@]12C
#32 Cc1ccc(-n2c(C)cc(C3=NNC(=NC4CC4)SC3)c2C)cc1C

| Screen / compound no. | 25 | 26 | 27 | 28 | 29 | 30 | 31 | 32 |
| --- | --- | --- | --- | --- | --- | --- | --- | --- |
| Epigenetic derep | -1.3% | -6.1% | -2.0% | -1.0% | 2.1% | 1.1%[16.9 µM] | / | -1.0% |
| CBFb-RUNX1 inh | 3% | 17% | ? | 4%[21.7 µM] | 11% | 7%[21.7 µM] | ? | -8% |
| GLA spleen mod | 6%&-7%&8% | -4%&-11% | 2% | 5%&-3% | 4% | 4%[29.1 µM] | 3% | 9% |
| Tau FP inhib | -20% | 2% | ? | -2% | 2%&2%&2% | / | / | -7% |
| Tau fluor cs | -16% | -12% | ? | -14% | 1%&-3%&-4% | / | / | -13% |
| NPSR antag | / | / | 1% | -1%[46.1 µM] | 0% | / | / | 10µM* |

#33 COc1cc(N)c(Cl)cc1C(=O)NC1CCN(Cc2ccccc2)CC1
#34 Cc1ncc(CO)c(CO)c1O
#35 CCOC(=O)C1=C[C@@]2(CC)CCCN3CCc4c(n1c1ccccc41)C32 (stereo partly drawn)
#36 CC(C)c1ccc2c(c1)CC[C@@H]1[C@@](C)(CN)CCC[C@]21C
#37 CCC(=O)O[C@@H]1[C@H](C)O[C@H](O[C@H]2[C@@H](N(C)C)[C@H](O)[C@@H](O[C@@H]3[C@@H](CC=O)C[C@@H](C)[C@@H](O)/C=C\C=C/C[C@@H](C)OC(=O)C[C@@H](OC(=O)CC)[C@H]3OC)O[C@H]2C)C[C@]1(C)O

| Screen / compound no. | 33 | 34 | 35 | 36 | 37 |
| --- | --- | --- | --- | --- | --- |
| Epigenetic derep | -1.3% | 0.0%[16.9 µM] | 0.0% | -1.4% | -0.3%[16.9 µM] |
| CBFb-RUNX1 inh | -21% | -14%[21.7 µM] | 13% | 3%[21.7 µM] | 17%[21.7 µM] |
| GLA spleen mod | -4% | 6%[29.1 µM] | 8% | 14% | 6%[29.1 µM] |
| Tau FP inhib | -3% | / | 1% | 1% | / |
| Tau fluor cs | -15% | / | -2% | -8% | / |
| NPSR antag | / | / | / | / | / |
